Screening results deposited in PubChem BioAssay by National Center for Advancing Translational Sciences (NCATS).
VACV Venus inh: vaccinia inhibition (Venus reporter) | Vaccinia virus Venus reporter expression, fluorescence | Potency, µM (titrated, usually from 36.5 µM), inactives show top-dose activity change, negative = inhibition, usual class: inhibitors | actives 0.46% (n = 330,000) | AID 720580; active means well fitted inhibition curve with a large enough effect; inconclusive means small, poorly fitted or top-dose-only effect; inactive means no such curve, though single readings can be large or run the other way; tested in A549 cells; note: nearly all actives have a fitted effect of over 30% in size; inactives centre near -10
Vaccinia mCherry: vaccinia inhibition (mCherry reporter); Vaccinia virus mCherry reporter infection, fluorescence; about a quarter of the inactives have no number; Potency, µM (top dose mostly 36.5 µM), without a hit: at the highest dose activity change, negative = inhibition, actives largely listed as inhibitors; actives 0.63% (n = 310,000); active = well fitted inhibition curve with a large enough effect; inconclusive = small, poorly fitted or top-dose-only effect; inactive = no such curve, though single readings can be large or run the other way; tested in A549 cells; note: nearly all actives have a fitted effect of over 35% in size; inactives centre near -10
An asterisk follows results filed as active; i = inactive; ? = inconclusive; nt = no result given. % is set by controls: 0 for no effect and ±100 for the full control effect; potency is the fitted concentration of half-maximal effect.

Each structure is followed by: VACV Venus inh	Vaccinia mCherry
1) O=c1c2c([N+](=O)[O-])cc([N+](=O)[O-])cc2sn1Cc1ccccc1
  -27%	-20%
2) COc1cc(NC(=O)C2CCN(S(=O)(=O)c3cccc4nonc34)CC2)cc(OC)c1
  -16%	nt
3) O=Cc1cn(CC(O)Cn2cc(C=O)c3ccccc32)c2ccccc12
  -4%	-5%
4) Cc1cc(C)n2c(SCC(=O)NC3CCCCC3C)nnc2n1 (stereo not given)
  -11%	-16%
5) COCCn1c(Sc2nc(C)cs2)nc2c1c(=O)[nH]c(=O)n2C
  -12%	-1%
6) Cc1[nH]c2ccccc2c1Cc1n[nH]c(=S)n1C
  -5%	-18%
7) CN(Cc1cccs1)C(=O)CN1CCN(S(=O)(=O)c2ccc3c(c2)OCCCO3)CC1
  -11%	i
8) O=C(CSc1nnnn1C1CCCC1)Nc1cccc(NC(=O)c2ccco2)c1
  -28%	0%
9) CCCCCN1CSC(=S)N(Cc2ccccc2)C1
  -12%	i
10) O=[N+]([O-])c1cccc(/C=N/N=C\c2ccccc2)c1
  -10%	-4%
11) CCOc1ccc(N(CC(=O)Nc2ccc(C)c(C)c2)S(=O)(=O)c2c(C)noc2C)cc1
  -21%	-13%
12) O=C(NCc1ccccc1Cl)c1ccc(-c2ccccc2)cc1
  ?	?
13) O=C(CCCOc1ccc(Br)cc1)NNC(=O)c1ccncc1
  -20%	-25%
14) CCCCNc1c(N2CCN(C(=O)OCC)CC2)c(=O)c1=O
  -1%	?
15) Nc1nnc(Cc2ccccc2)s1
  -4%	-10%
16) COc1ccc(OC)c(CCNC(=O)Cn2ccc3cc(S(=O)(=O)N4CCCCC4)ccc32)c1
  -23%	-21%
17) CC(CC(=O)NCc1ccc(F)cc1)c1ccccc1 (stereo not given)
  -9%	i
18) Cc1cc(C(=O)COc2ccccc2[N+](=O)[O-])c(C)n1-c1cccc(S(=O)(=O)N2CCOCC2)c1
  -7%	-19%
19) COCCCNC(=O)c1ccc(Cn2c(=O)c3ccccc3n(CC(N)=O)c2=O)cc1
  20%	27%
20) COc1ccc(S(=O)(=O)n2nc(C)c(S(=O)(=O)N3CCCCCC3)c2C)cc1OC
  -10%	-6%
21) NC(=O)c1cnn2c(-c3cccc(C(F)(F)F)c3)ccnc12
  3%	i
22) Cc1nn(CC(=O)N2N=C(C(F)F)CC2(O)C(F)F)c(C)c1[N+](=O)[O-] (stereo not given)
  -4%	-20%
23) COC(=O)[C@H]1C[C@H](OC(=O)NC2CC2)[C@@]2(O)CN(S(=O)(=O)c3ccc(C)cc3)CC2[C@H]1C(=O)OC (stereo not given in full)
  -7%	8%
24) Cc1ccc(S(=O)(=O)N2[C@@H](c3ccc(C(C)(C)C)cc3)C(C(=O)O)=CC[C@H]2c2ccc(Cl)c(Cl)c2)cc1
  -23%	?
25) COc1cccc(NC(=O)CN(C)C(=O)c2cc(-c3ccco3)nc3ccccc23)c1
  -7%	-6%
26) CCOc1cc(/C=C(/C#N)C(=O)Nc2ccc(O)cc2)cc(Br)c1O
  -28%	?
27) CC(=O)N[C@@H](Cc1c[nH]c2ccccc12)C(=O)NCCc1ccc(S(N)(=O)=O)cc1
  -4%	i
28) Cc1ccc(NC(=O)CN2C(=O)N/C(=C/c3ccc4c(c3)OCCO4)C2=O)cc1
  -5%	i
29) O=C1CN(C(=S)Nc2ccc(OC(F)F)cc2)CCN1
  -3%	3%
30) COCCNC(=O)C[C@H]1C[C@H]2c3cc(NS(=O)(=O)c4ccc(F)cc4)ccc3O[C@H]2[C@H](CO)O1
  -20%	-13%

New compounds follow
Each structure is followed by: VACV Venus inh	Vaccinia mCherry
31) CCOC(=O)c1c(C)n(C)c2cc(Br)c(OC)cc12
  -8%	-16%
32) O=C(NC1CCN(S(=O)(=O)c2ccc(F)cc2)CC1)C1CCCCC1
  -8%	-18%
33) O=C(Nc1ccccc1)c1ccc(S(=O)(=O)N(CCO)CCO)cc1
  ?	nt
34) C(=N\Nc1nc2ccccc2[nH]1)/c1ccncc1
  0%	?
35) COc1ccc(C(=O)N[C@H](C(=O)NCc2ccc(C)cc2)C(C)C)cc1
  2%	i
36) NC(=O)CN1CCN(S(=O)(=O)c2ccc(Cl)cc2)CC1
  3%	-2%
37) COc1ccc(NC(=O)Cn2c(=O)n(Cc3ccccc3)c(=O)c3sc4ccccc4c32)cc1
  -4%	-8%
38) CCOc1c(C)cc(S(=O)(=O)NCc2cccnc2)c(C)c1C
  -17%	-22%
39) Cc1ccc(-n2nc3cc(C)c(N)cc3n2)cc1
  -21%	nt
40) Nc1nc(N)c2c(Oc3ccc(F)cc3)cccc2n1
  ?	?
41) CCOc1ccc(NC(=O)COC(=O)c2c(OC)cccc2OC)cc1
  -6%	i
42) Cc1cccc(N(CC(N)=O)C2SC(=O)NC2=O)c1 (stereo not given)
  -12%	nt
43) CCOc1ccc(-c2n[nH]c(=S)c3ccccc23)cc1
  -21%	-2%
44) CCCC(=O)Nc1ccc2nc(SCCOc3ccccc3)sc2c1
  -13%	-12%
45) OC1(c2ccc3c(c2)CN(Cc2ccco2)CCO3)CCN(c2ccccc2F)CC1
  -9%	-13%
46) CCOC(=O)c1c(C)[nH]c(C)c1C(=O)COC(=O)c1ccc(OC)cc1
  -10%	-18%
47) COc1ccc(CCNc2ncnc3c2nnn3C)cc1
  -23%	-10%
48) CCOC(=O)c1cnc(SCC(=O)N2CCc3ccccc32)nc1N
  1%	i
49) O=C(CN(C(=O)c1csnn1)c1ccccc1F)NCc1ccccc1
  -9%	-5%
50) c1ccc(SSc2ccccn2)nc1
  1%	i
51) CCCOc1ccc(C2C(C(=O)OC)=C(C)N=C3SCCC(=O)N32)cc1OCC (stereo not given)
  -10%	nt
52) CC1CCCCC1NC(=O)COc1ccc(C#N)cc1 (stereo not given)
  -8%	-14%
53) O=C(CN1CCCC1)NCC(=O)Nc1ccc(F)cc1
  -5%	-3%
54) O=C(CN1CCN(C(=O)c2ccco2)CC1)Nc1ccc2c(c1)OCO2
  -9%	-11%
55) O=C(CNC(=O)c1ccc2ccccc2c1)NC1CCCCC1
  -8%	-18%
56) FC(F)(F)c1ccccc1CNCc1ccncc1
  -6%	-20%
57) Cc1cc(S(=O)(=O)N2CCOCC2)ccc1OCC(=O)Nc1ccccc1F
  0%	12%
58) CCO[C@H]1OC(C(=O)N2CCOCC2)=C[C@@H](C2CC2)[C@@H]1CCCO
  -18%	-11%
59) CC(=O)Nc1ccc(NC(=O)CS(=O)(=O)Cc2ccccc2)cc1
  -12%	-2%
60) O=c1[nH]cc(N2CCCCCC2)c(=O)[nH]1
  4%	i

Continued, starting with the last four of the part before.
Each structure is followed by: VACV Venus inh	Vaccinia mCherry
57) Cc1cc(S(=O)(=O)N2CCOCC2)ccc1OCC(=O)Nc1ccccc1F
  0%	12%
58) CCO[C@H]1OC(C(=O)N2CCOCC2)=C[C@@H](C2CC2)[C@@H]1CCCO
  -18%	-11%
59) CC(=O)Nc1ccc(NC(=O)CS(=O)(=O)Cc2ccccc2)cc1
  -12%	-2%
60) O=c1[nH]cc(N2CCCCCC2)c(=O)[nH]1
  4%	i
61) COc1ccc(-n2c(=O)c3c(c4cc(OC)ccc4n3C)n(Cc3c(F)cccc3Cl)c2=O)cc1
  -1%	-17%
62) O=C(NCCc1cccs1)c1ccc(CS(=O)Cc2cccc(Cl)c2)o1 (stereo not given)
  -9%	i
63) O=C(CSc1nnc(-c2cccc(F)c2)o1)N1CCCC1
  -15%	i
64) O=C(Nc1ccc(-n2nncc2-c2ccccc2)cc1)c1cccc(F)c1
  -16%	-22%
65) CC(C)(C)C1(O)CC(C(F)(F)F)=NN1C(=O)Cc1ccc([N+](=O)[O-])cc1 (stereo not given)
  -11%	?
66) COCCCN1C(=O)C(=O)/C(=C(/O)c2ccc(OCC(C)C)cc2C)C1c1cccnc1 (stereo not given)
  2%	-8%
67) Cc1onc(-c2ccccc2)c1C(=O)NCC1CCCO1 (stereo not given)
  ?	?
68) COc1ccc(-c2noc(CCC(=O)NCCCN3CCC(C)CC3)n2)cc1
  -15%	nt
69) Cc1ccc(CN2C(=O)CN=C(c3ccccc3)c3ccccc32)cc1
  -9%	i
70) COC(=O)C1CCN(Cc2cn(-c3ccccc3)nc2-c2ccc3c(c2)OCO3)CC1
  3%	0%
71) COC(=O)c1ccc(COc2ccc(C(C)(C)C)cc2)o1
  -9%	i
72) Cc1ccc2[nH]c3c(c2c1)CCCC3C(N)=O (stereo not given)
  -11%	-17%
73) CCC(CC)COC(=O)C1=C(C)NC(=O)NC1c1ccc2c(c1)OCO2 (stereo not given)
  -9%	0%
74) CC(Sc1nc(=O)cc(N)n1CCc1ccccc1)C(=O)Nc1ccccc1C#N (stereo not given)
  5%	5%
75) CCN(Cc1ccccc1)S(=O)(=O)c1ccc(C(=O)N(CCCN(C)C)c2nc3cc4c(cc3s2)OCO4)cc1
  ?	-18%
76) Cc1coc2cc3oc(=O)cc(C)c3cc12
  -9%	-11%
77) COc1ccc(-c2nnn(CCc3nn[nH]n3)n2)cc1
  -11%	-12%
78) Cc1c(C(=O)N(C)c2ccccc2)sc2nc(-c3ccc(F)cc3)cn12
  -24%	-24%
79) Cc1c(C(=O)O)[nH]c2c1C(=O)CC(c1ccc(Cl)cc1)C2 (stereo not given)
  0%	1%
80) Cc1ccccc1OCCC(=O)Nc1ccc(F)c(Cl)c1
  -11%	i
81) CCn1c(O)c(N=NC(=O)Cc2csc(N3CCOCC3)n2)c2ccccc21
  -7%	-20%
82) Cc1oc2ccc(OC(C(=O)O)c3ccccc3)cc2c1C(=O)O (stereo not given)
  -7%	i
83) COc1ccc2c(c1)CCc1c(C(=O)N(C)c3ccccc3)noc1-2
  -18%	?
84) CCCCOC(=O)CCc1c(C)n[nH]c1C
  -13%	i
85) O=C1CCSC2(C(=O)N(Cc3ccc(F)cc3)c3ccccc32)N1c1cccc(F)c1 (stereo not given)
  -16%	-22%
86) Cc1ccc(NC(=O)CN2C(=O)/C(=C3\SC(=S)N(C4CCS(=O)(=O)C4)C3=O)c3ccccc32)cc1 (stereo not given)
  -5%	-1%
87) Cc1nnc(C)n1/N=C/c1ccc(C(C)C)cc1
  0%	i
88) COc1ccccc1NC(=O)CC1C(=O)Nc2c1c(=O)n(C)c(=O)n2C (stereo not given)
  -14%	nt
89) CCOc1ccc(S(=O)(=O)NCCC(=O)N2CCN(Cc3ccccc3)CC2)cc1
  -12%	i
90) Cc1ccc(C2(C)NC(=O)N(CC(=O)c3ccc(Cl)s3)C2=O)cc1 (stereo not given)
  -7%	i

The final 5 compounds of the section above lead into the next.
Each structure is followed by: VACV Venus inh	Vaccinia mCherry
86) Cc1ccc(NC(=O)CN2C(=O)/C(=C3\SC(=S)N(C4CCS(=O)(=O)C4)C3=O)c3ccccc32)cc1 (stereo not given)
  -5%	-1%
87) Cc1nnc(C)n1/N=C/c1ccc(C(C)C)cc1
  0%	i
88) COc1ccccc1NC(=O)CC1C(=O)Nc2c1c(=O)n(C)c(=O)n2C (stereo not given)
  -14%	nt
89) CCOc1ccc(S(=O)(=O)NCCC(=O)N2CCN(Cc3ccccc3)CC2)cc1
  -12%	i
90) Cc1ccc(C2(C)NC(=O)N(CC(=O)c3ccc(Cl)s3)C2=O)cc1 (stereo not given)
  -7%	i
91) O=C(COc1ccc(OCc2ccccc2)cc1)NC1CCOC1=O (stereo not given)
  -24%	nt
92) COc1ccc(C2N3CC4(C)CN2CC(C)(C3)C4O)cc1 (stereo not given)
  7%	i
93) O=C(NCc1ccccc1)c1noc2c1CCCCC2
  -27%	?
94) CCc1ccc(Nc2nn(-c3ccc(OC(F)(F)F)cc3)nc2C(C)=O)cc1
  -2%	2%
95) Cc1cc(C)c(OCC(=O)OCC(=O)NCc2cccs2)c(C)c1
  -7%	-10%
96) Cc1c(C(=O)NCCN2CCOCC2)sc2nc(-c3ccc(F)cc3)cn12
  -11%	-3%
97) C[C@@H]1CN([C@H](C)CO)C(=O)CCCn2cc(nn2)CO[C@H]1CN(C)S(C)(=O)=O
  -23%	-17%
98) CC(C)(C)c1ccc(Cn2c(=N)n(CC(O)c3ccco3)c3ccccc32)cc1 (stereo not given)
  ?	?
99) Cc1ccc(NC(=O)CS(=O)CC(=O)N(c2ccccc2)C(C)C(=O)NC2CCCC2)cc1 (stereo not given)
  -10%	i
100) Cc1cccc(N2CCN(C(=O)CCc3nc4ccccc4c(=O)[nH]3)CC2)c1C
  12%	-15%
101) O=C(/C=C/c1cccc([N+](=O)[O-])c1)OCC(=O)N1CCOCC1
  -7%	-21%
102) COc1ccc(-c2nc(C#N)c(N3CCCCCC3)o2)cc1OC
  -24%	-13%
103) Fc1ccc(CCNCc2ccccc2Cl)cc1
  -8%	-19%
104) O=S(=O)(c1ccc(Cl)c(NC(=S)N/N=C/c2c(F)cccc2F)c1)N1CCOCC1
  -12%	-11%
105) CCc1cccc(C)c1Nc1c(-c2cccc(O)c2)nc2nc(C)cc(C)n12
  -17%	-20%
106) Cc1cc(OCC(=O)NCc2ccncc2)ccc1Cl
  4%	i
107) CCCn1cnc2c(cnn2-c2ccc(F)cc2)c1=O
  -13%	nt
108) CCOc1ccc(CC(=O)Nc2c(C(=O)c3ccc(F)cc3)oc3ccccc23)cc1OCC
  2%	8%
109) COCCCN1CC23C=CC(O2)C(C(=O)O)C3C1=O (stereo not given)
  -5%	-6%
110) CCOc1ccccc1OCCCCn1c(-c2ccc(Cl)cc2)nc2ccccc2c1=O
  -3%	-5%
